GIV-Gai inh: inhibitors of GIV GBA-motif binding to rat Galpha-i3; 210,000 tested, 0.42% active; P08753; percent of control (FP), % (concentration not given with the values); AID 1224905; Galpha-i3/FITC-GIV peptide fluorescence polarization, 90 min; hits give low values; scaled: aluminum fluoride 0%, vehicle 100%;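 active = replicate mean at 85% of control or lower, very high polarization wells dropped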;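 also: wells of about 15 µL received 100 nL stock; the first replicate is given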
Target sequence (P08753 whole entry, looked up): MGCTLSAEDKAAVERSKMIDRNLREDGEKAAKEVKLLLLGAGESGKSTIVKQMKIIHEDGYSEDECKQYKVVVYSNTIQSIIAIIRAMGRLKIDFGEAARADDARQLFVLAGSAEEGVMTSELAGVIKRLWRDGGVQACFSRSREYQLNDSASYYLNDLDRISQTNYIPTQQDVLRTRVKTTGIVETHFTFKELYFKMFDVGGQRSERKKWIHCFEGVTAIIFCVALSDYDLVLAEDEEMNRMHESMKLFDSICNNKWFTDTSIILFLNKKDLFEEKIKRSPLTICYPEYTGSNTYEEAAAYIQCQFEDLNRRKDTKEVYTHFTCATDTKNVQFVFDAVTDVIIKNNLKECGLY
* = called active by the depositor.

cpd	canonical_smiles	GIV-Gai inh
1	Cc1ccc(C(=O)N2c3ccccc3N=C(c3ccccc3)CC2c2ccccc2)cc1 (stereo not given)	99
2	CCOC(=O)N1CCC(NC(=O)c2cnc(OC)nc2)CC1	101
3	Cc1cc(C2CCCN2C(=O)c2cc(-c3ccccc3Cl)on2)on1 (stereo not given)	104
4	COc1cc(C2NC(=O)c3c(sc4c3CCCC4)N2)cc(OC)c1OC (stereo not given)	117
5	CC(=O)NCc1csc(C2CCN(C(=O)C3CCC3)CC2)n1	97
6	CC1CCCN(c2nc3c(c(=O)n(C)c(=O)n3C)n2CC(=O)c2ccc(Br)cc2)C1 (stereo not given)	107
7	O=C1C(=O)N(c2ccc(O)cc2)C(c2ccccc2)/C1=C(/O)c1ccccc1 (stereo not given)	107
8	CCOc1c(C(=O)OC)sc2ccc(NC(=O)CN3C(=O)COc4ccc(C(C)(C)C)cc43)cc12	97
9	COc1ccc(C(=O)Nc2c(-c3ccccc3)nc3ccc(C)cn23)cc1	108
10	Cc1ccc(CNC2=NCCCNC23CCCCC3)cc1	104
11	Cc1ccc(N2C3=C(C(=O)CC(C)(C)C3)C(c3ccccc3)C3=C2c2ccccc2C3=O)cc1 (stereo not given)	104
12	O=C1NC(c2ccc(OCc3ccccc3)cc2)Nc2sc3c(c21)CCCC3 (stereo not given)	113
13	COc1cc(OC)cc(C2C(C(=O)c3ccccc3)N3c4ccccc4C=CC3C2(C#N)C#N)c1 (stereo not given)	112
14	O=S(=O)(c1ccc(F)cc1)N1CCC2(CC1)NCCN=C2NCc1cccc(F)c1	99
15	COc1nn(CC(=O)Nc2sc3c(c2C#N)CCC3)cc1[N+](=O)[O-]	109
16	CCOC(=O)C1=NN(c2ccc(Br)cc2)C2(S1)c1ccccc1C(c1ccc(Br)cc1)=NN2c1ccccc1 (stereo not given)	105
17	NS(=O)(=O)c1ccc(CCNCc2cccc(Oc3nnnn3-c3ccccc3)c2)cc1	104
18	O=C(CCc1nc(CSc2nc3cc(Cl)ccc3o2)no1)Nc1ccccc1F	103
19	O=C1C2C3c4ccccc4C(c4ccccc43)C2C(=O)N1Cc1ccc(F)cc1 (stereo not given)	106
20	COc1ccc(OCc2nc(-c3ccc4c(c3)Sc3ccccc3C(=O)N4C)no2)cc1	97
21	CCN(CC)c1nc2cc(C(=O)OC)ccc2c(=O)n1-c1ccc2c(c1)OCO2	107
22	CC1=NS(=O)(=O)N(C)C=C1C(=O)OC(C)C	95
23	Cc1ccc(S(=O)(=O)N(CC(O)CN(CC(C)C)CC(C)C)c2cccc3ccccc23)cc1 (stereo not given)	109
24	COc1cc(/C=C2/S/C(=N/S(=O)(=O)c3ccc(C)cc3)NC2=O)cc(OC)c1OC	97
25	Cc1sc(C)c(S(=O)(=O)N2CCCc3ccccc32)c1-c1cc(C(F)(F)F)on1	102

Filtered by structure, the compounds so far with a cyano group (2)
cpd	canonical_smiles	GIV-Gai inh
13	COc1cc(OC)cc(C2C(C(=O)c3ccccc3)N3c4ccccc4C=CC3C2(C#N)C#N)c1 (stereo not given)	112
15	COc1nn(CC(=O)Nc2sc3c(c2C#N)CCC3)cc1[N+](=O)[O-]	109

New compounds follow.
cpd	canonical_smiles	GIV-Gai inh
26	CCn1c(=S)sc2c(=O)n(-c3ccccc3)c(SC)nc21	113
27	O=S(=O)(c1cccc2nonc12)N1CCc2ccccc2C1	104
28	Cc1ccc(-c2cnc(N3CCCC(C(=O)NC4CCCCC4)C3)nc2)cc1 (stereo not given)	105
29	CCOC(=O)C1=C(C(=O)OCC)SC2(S1)C(C(=O)OCC)=C(C(=O)OCC)SC1=C2c2ccccc2N(C)C1(C)C	103
30	COc1ccc(S(=O)(=O)N2CCc3nc(NC(=O)C4CCCCC4)sc3C2)cc1	100
31	Cc1cccc(NC(=O)CSc2nc(-c3cccs3)cc(C(F)(F)F)c2C#N)n1	114
32	COC(=O)C1=CN(Cc2ccc(Cl)cc2)C=C(C(=O)OC)C1c1cc(OC)c(OC)cc1OC	104
33	COc1ccc(-c2cc(N3CCN(C(=O)c4ccc(C(C)(C)C)cc4)CC3)ncn2)cc1	103
34	Cc1ccc(Cn2nc3c(S(=O)(=O)N4CCN(c5ccc(F)cc5)CC4)cccn3c2=O)cc1	103
35	O=C(CSc1nc2ccccc2n1S(=O)(=O)c1ccc(Cl)cc1)NCc1cccc(Cl)c1	113
36	CC12c3ccccc3C(c3ccccc31)C1C(=O)N(c3ccc(Cl)c(C(=O)O)c3)C(=O)C12 (stereo not given)	118
37	Cc1nnc(-c2c(C)[nH]c(C)c2S(=O)(=O)N2CCC(C)CC2)o1	103
38	CCNC(=O)CCC(=O)N1Cc2cccn2-c2ccccc21	103
39	O=C(c1ccc2nc3ccc(Cl)cc3c(=O)n2c1)N1CCN(c2ccccc2)CC1	101
40	CCN(CC)S(=O)(=O)c1ccc(-c2csc(N3N=C(c4ccc(OC)cc4)CC3c3ccco3)n2)cc1 (stereo not given)	113
41	CCNc1cc(C)nc(Nc2ccc(NC(=O)CC)cc2)n1	102
42	Cc1csc(-c2cc(S(=O)(=O)Nc3cccc(Cl)c3)c(C)s2)n1	180
43	CCOc1ccc(NC(=O)CSc2nc3cc(C(=O)NCc4ccco4)ccc3c(=O)n2-c2ccc(F)cc2)cc1	111
44	O=C(NCCCN1CCOCC1)c1ccc2c(=O)n(CC3CCCO3)c(SCc3cccc([N+](=O)[O-])c3)nc2c1 (stereo not given)	116
45	Cc1cc(N2C(=O)CS(=O)(=O)C2c2ccccc2[N+](=O)[O-])ccc1Br (stereo not given)	120
46	Cc1nc(-c2ccccc2)nc2c1CCC(=O)N2CC1CC1	104
47	Cc1cc(C)cc(-n2sc3c(c2=S)-c2ccc(C)cc2NC3(C)C)c1	110
48	O=C(NC1CS(=O)(=O)CC1NCc1ccccc1)c1ccccc1 (stereo not given)	117
49	CN(CCc1noc(-c2ccc(C(=O)N3CCCC3)cc2)n1)C(=O)NCCc1ccccc1	106
50	COc1ccc(CCNC(=O)CSc2nc3ccc([N+](=O)[O-])cc3s2)cc1OC	107

Other compounds.
cpd	canonical_smiles	GIV-Gai inh
51	CC(=O)c1c(C)oc2ccc(N(C(=O)c3ccccc3)S(=O)(=O)c3ccc4ccccc4c3)cc12	107
52	COc1ccc(NS(=O)(=O)c2cc(-c3ccc(=O)[nH]n3)cc(C)c2C)cc1	105
53	Fc1ccc(F)c(-c2nc(-c3ccc4nncn4c3)no2)c1	106
54	CC(C)(C)C(=O)Nc1nc(C2CCCN2S(=O)(=O)c2ccc(Cl)cc2)cs1 (stereo not given)	104
55	CCC(C)c1ccc(OCCOc2ccc(-c3nc4sc5c(c4c(=O)[nH]3)CCCC5)cc2OC)cc1 (stereo not given)	103
56	Cc1ccc(C)c(N2CCN(c3ncnc4c3cnn4-c3ccccc3)CC2)c1	102
57	CCOc1ccc(-c2nc(CN3CCN(C(=O)Nc4cc(C)cc(C)c4)CC3)c(C)o2)cc1	98
58	Cn1c(=O)c2c(nc(N3CCOCC3)n2CC(=O)C23CC4CC(CC(C4)C2)C3)n(C)c1=O	112
59	CCOc1cc(C2C(C(=O)OCCOC(C)C)=C(C)NC3=C2C(=O)CC(c2cccs2)C3)cc([N+](=O)[O-])c1O (stereo not given)	125
60	CN1C(=O)N(C)C2(c3ccccc3)N(C)C(=O)NC12c1ccccc1 (stereo not given)	107
61	O=C(Nc1ccc(N2CCCC2)c(C(=O)O)c1)c1ccc(Br)cc1	111
62	CCOC(=O)C1=C(C)N=c2s/c(=C/c3ccc(N(CC)CC)o3)c(=O)n2C1c1ccc(N(C)C)cc1 (stereo not given)	135
63	CN1C(=O)C(C(=O)c2ccccc2)C2CC1(C)Oc1ccccc12 (stereo not given)	107
64	CCOC(=O)N1CCN(C(=O)c2ccc3c(=O)n(-c4ccccc4)c(SCc4nc5ccccc5[nH]4)nc3c2)CC1	108
65	COc1ccc(C2(O)CN(c3ccc(C)cc3)C3=[N+]2CCCS3)c(F)c1 (stereo not given)	106
66	CSCC[C@H](NC(=O)C(C)(C)C)C(=O)NCc1cscn1	106
67	CCC(=O)N1c2c(C)cc(C)cc2-c2c(ssc2=S)C1(C)C	112
68	Cc1ccc(NC(=O)c2ccccn2)c(C)c1	104
69	CCOC(=O)C1=C(O)/C(=C/c2ccc(N(C)C)cc2)SC1=Nc1ccc(OC)cc1	121
70	CC(C)c1cc(C2CCCN2Cc2cn[nH]c2-c2cccs2)no1 (stereo not given)	117
71	O=C(CN1c2ccccc2NC2=C(C(=O)CCC2)C1c1cccs1)NC1CCCC1 (stereo not given)	101
72	O=C(NCC1CCCO1)c1ccc2c(=O)n(Cc3ccco3)c(SCC(=O)N3CCN(c4ccccc4)CC3)nc2c1 (stereo not given)	107
73	Cc1cccc(N2CC(O)(c3ccc(OC(F)F)cc3)[N+]3=C2SCCC3)c1 (stereo not given)	101
74	COc1ccc(OC(=O)c2cc3c(C)nn(-c4ccc(F)cc4)c3s2)cc1	101
75	CN(C)c1ccc(C2N3CC4(C)CN2CC(C)(C3)C4)cc1 (stereo not given)	109

(listing goes on)
cpd	canonical_smiles	GIV-Gai inh
76	Cc1cc(C(F)(F)F)c(C#N)c(SCC(=O)NCCc2ccccc2)n1	113
77	CCOC(=O)c1c(CNCCN(CC)CC)n(C)c2cc(Br)c(OC(C)=O)cc12	107
78	Cn1c(SCC(=O)N2CCCC2)nnc1-c1cc2ccccc2o1	97
79	CCc1cc(Sc2ccc(NC(=O)C3CC3)cc2)n2ncnc2n1	103
80	COc1ccccc1C1C2=C(CC(C)(C)CC2=O)OC2=C1C(=O)CC(C)(C)C2	100
81	Cc1ccc(-n2ncc3c(Nc4c(C)n(C)n(-c5ccccc5)c4=O)ncnc32)c(C)c1	107
82	O=C(Nc1ccccc1)C1CC(=O)N(c2ccc3c(c2)CCN3C(=O)C2CCC2)C1 (stereo not given)	103
83	C=C(C)CSc1nnc2n(-c3ccccc3C)c(=O)c3c4c(sc3n12)CCC4	112
84	Cc1ccc2[nH]cc(CCNC(=O)CS(=O)Cc3cnn(-c4ccccc4)c3-n3cccc3)c2c1 (stereo not given)	99
85	CCOC(=O)C(NC(=O)c1ccc(F)cc1)(Nc1nc2ccccc2nc1C(F)(F)F)C(F)(F)F (stereo not given)	102
86	Cc1csc(-c2csc(S(=O)(=O)N3CCN(c4ccccc4)CC3)c2)n1	91
87	CCCCc1nc2c3ccccc3n(CC(=O)N3CCN(c4ccc(F)cc4)CC3)c(=O)n2n1	99
88	CCc1cnc2c(c1SC(C)C)c(=O)n(C)c(=O)n2C	97
89	CCCNC(=O)c1ccc(-c2nc3cc(NS(=O)(=O)c4cnc[nH]4)ccc3n2C)cc1	106
90	Cn1nc(C(=O)Nc2ccccc2)c2c1CCN(C(=O)CCC(=O)N1CCCC1)C2	108
91	Cc1nc2ncnn2c(N2CCN(C(C)C)CC2)c1C	100
92	Cc1ccc(Cl)cc1N1CCN(c2ncc(S(=O)(=O)c3ccccc3)c(N)n2)CC1	107
93	CC1CCN(CCNC(=O)c2ccc(Cn3c(=S)[nH]c4ccc(Br)cc4c3=O)cc2)CC1	116
94	Cc1cc(N2CCN(c3ccccc3)CC2)nc(-n2nc(C)cc2C)n1	105
95	COc1ccc(C2=CC(c3ccc(OC)cc3)NC(=S)N2)cc1 (stereo not given)	101
96	Cn1c(=O)c(C(=O)CS(=O)(=O)O)c2c3c(cccc31)C(=O)c1ccccc1-2	55*
97	CC(C)C(=O)Nc1ccc(Sc2nc3ccccc3n3nnnc23)cc1	99
98	COc1cc(NC(=O)c2cc3c(C)nn(-c4ccc(Cl)cc4)c3s2)cc(OC)c1	103
99	C=CCOc1nc(Sc2ccccc2)nc(N2CCOCC2)n1	106
100	COc1ccc(CNC(=O)C(C)n2ccc3c(C)nn(C)c3c2=O)c(OC)c1 (stereo not given)	102

(cont.)
cpd	canonical_smiles	GIV-Gai inh
101	C=CCn1nc2ccc(S(=O)(=O)N3CCC(C)CC3)cn2c1=O	104
102	Nc1nc(Cn2c(-c3cncs3)nc3ccccc32)nc(N2CCOCC2)n1	104
103	CN1CCN(C(=O)C2(c3ccc(NS(C)(=O)=O)cc3)CCCCC2)CC1	99
104	CCOC(=O)C1CCN(CN2C(=O)C3(SCC(=O)N3c3ccc(C)c(C)c3)c3ccccc32)CC1 (stereo not given)	123
105	NC(=O)c1nc(Nc2ccccc2)sc1NC(=O)CC1CCCC1	110
106	COc1ccc(-c2noc(-c3cn(CC(=O)NC4CCCCC4)c4nc(C)ccc4c3=O)n2)cc1	177
107	COc1ccccc1N1CCN(S(=O)(=O)c2ccc3c(c2)C(C)(C)CN3C(C)=O)CC1	106
108	CCOc1cccc(NC(=O)C2CC(=O)N(C)C(=Nc3cc(Cl)cc(Cl)c3)S2)c1 (stereo not given)	102
109	CC(C)(C)c1csc(-c2csc(S(=O)(=O)Nc3ccc(Br)cc3F)c2)n1	104
110	Cc1ccc(NC(=O)CSc2nc3ccccc3c(=O)n2CCCC(=O)N2CCN(c3ccccc3)CC2)cc1	106
111	COc1ccc(CCNC(=O)CCCn2c(SCC(=O)NC3CCCCC3)nc3ccccc3c2=O)cc1OC	111
112	CCc1ccc(NC(=O)Nc2ccc3c(c2)CCN3S(=O)(=O)c2ccc(C)cc2)cc1	98
113	O=C1c2ccccc2S(=O)(=O)N1CC(O)COc1ccc(Cl)cc1 (stereo not given)	97
114	O=C1c2cc(S(=O)(=O)NCCO)ccc2-c2ccc(S(=O)(=O)NCCO)cc21	107
115	CC(=O)Oc1ccc(/C=c2/sc3nc(-c4cccc([N+](=O)[O-])c4)nn3c2=O)cc1	119

Ordered by value in GIV-Gai inh (low to high): six of the compounds above
| # | compound | GIV-Gai inh |
| --- | --- | --- |
| 112 | CCc1ccc(NC(=O)Nc2ccc3c(c2)CCN3S(=O)(=O)c2ccc(C)cc2)cc1 | 98 |
| 107 | COc1ccccc1N1CCN(S(=O)(=O)c2ccc3c(c2)C(C)(C)CN3C(C)=O)CC1 | 106 |
| 114 | O=C1c2cc(S(=O)(=O)NCCO)ccc2-c2ccc(S(=O)(=O)NCCO)cc21 | 107 |
| 111 | COc1ccc(CCNC(=O)CCCn2c(SCC(=O)NC3CCCCC3)nc3ccccc3c2=O)cc1OC | 111 |
| 104 | CCOC(=O)C1CCN(CN2C(=O)C3(SCC(=O)N3c3ccc(C)c(C)c3)c3ccccc32)CC1 (stereo not given) | 123 |
| 106 | COc1ccc(-c2noc(-c3cn(CC(=O)NC4CCCCC4)c4nc(C)ccc4c3=O)n2)cc1 | 177 |

This is a subset; the hit share may differ from the screen's.
